Compound activity (PubChem)
Runt-SMMHC FRET: inhibitors of RUNX1 Runt–CBFb-SMMHC binding, primary screen, biochemical, FRET, Cerulean-Runt, Venus-CBFb-SMMHC, uHTS | Runt-related transcription factor 1 (Homo sapiens) + Core-binding factor subunit beta … | Cerulean-Runt/Venus-CBFb-SMMHC FRET ratio 530/480, 1 h | inhibition, % at 20 µM | 220,000 tested, 0.74% active;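 active = mean inhibition across duplicate retests at 20 µM reaching about 50%, limit read from the data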;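 note: 0% = DMSO wells and 100% = wells with excess untagged CBFb-SMMHC; inhibitors lower the FRET ratio by blocking Runt binding to CBFb-SMMHC; some results filed as inactive read as strong as hits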
Target sequence (Q01196 whole entry, looked up): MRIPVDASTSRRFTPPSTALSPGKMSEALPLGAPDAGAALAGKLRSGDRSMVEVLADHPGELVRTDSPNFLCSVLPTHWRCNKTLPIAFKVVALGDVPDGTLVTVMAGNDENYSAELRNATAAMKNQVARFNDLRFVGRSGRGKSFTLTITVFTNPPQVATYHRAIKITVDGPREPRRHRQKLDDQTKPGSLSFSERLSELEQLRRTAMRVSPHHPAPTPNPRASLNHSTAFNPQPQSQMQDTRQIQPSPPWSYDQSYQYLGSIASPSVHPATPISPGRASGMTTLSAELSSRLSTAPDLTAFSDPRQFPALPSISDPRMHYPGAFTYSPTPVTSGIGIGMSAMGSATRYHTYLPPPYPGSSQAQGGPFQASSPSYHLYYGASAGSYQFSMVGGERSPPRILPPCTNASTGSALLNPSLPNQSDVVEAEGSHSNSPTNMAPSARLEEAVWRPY
Target sequence (Q13951 whole entry, looked up): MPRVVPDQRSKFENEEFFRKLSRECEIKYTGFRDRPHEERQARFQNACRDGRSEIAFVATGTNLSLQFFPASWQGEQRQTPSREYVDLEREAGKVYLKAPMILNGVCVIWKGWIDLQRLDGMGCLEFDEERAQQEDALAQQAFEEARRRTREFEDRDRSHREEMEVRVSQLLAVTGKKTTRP
Runt-CBFb FRET: inhibitors of RUNX1 Runt–CBFb binding, primary screen, biochemical, FRET, Cerulean-Runt, Venus-CBFb, uHTS. Runt-related transcription factor 1 (Homo sapiens) + Core-binding factor subunit beta …. inhibition, % at 20 µM. Cerulean-Runt/Venus-CBFb FRET ratio 530/480, 1 h. AID 1496, 2009. 220,000 tested, 0.46% active;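 active = inhibition over about 50% at 20 µM in the single-dose screen, limit read from the data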;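 note: 0% = DMSO wells and 100% = excess unlabeled CBFb competitor control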
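test system = Cerulean-tagged RUNX1 Runt domain (FRET donor) fusion protein | reagent = Venus-CBFb binding partner, 100 nM | incubation = protein complex preformed 1 h, compound exposure 1 h, room temperature, dark | detection = FRET fluorescence | read-out basis = loss of energy transfer signal | controls = 5 µM unlabeled CBFb as full-inhibition high control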
Thrombin inh: human alpha-thrombin inhibitors, primary screen, counter-screen for coagulation protease inhibitor project, biochemical, 1536-well, fluorogenic AMC substrate; Prothrombin (Homo sapiens), P00734; Boc-VPR-AMC fluorogenic substrate cleavage; inhibition, % at 5 µM; 220,000 tested, 0.26% active;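 active = inhibition at or above 40%; inactive = inhibition below 40%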;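 note: 0% = enzyme with no compound and 100% = wells without enzyme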
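System – human alpha-thrombin · Medium – pH 7.5 Tris (50 mM) with NaCl 150 mM, Tween 20 0.05% · Compound – single-point dosing at 5 µM, 0.2% DMSO · Incubation – enzyme reaction carried out at room temperature · Technique – fluorescence of released AMC, ex 355 nm, em 460 nm · Read-out basis – % inhibition of thrombin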
14-3-3 Bad inh: inhibitors of 14-3-3 zeta/Bad binding, primary screen, biochemical, TR-FRET, bovine 14-3-3 zeta. TR-FRET 14-3-3zeta/Dy647-pBad peptide displacement, 1 h. AID 781, 2007. 14-3-3 protein zeta/delta (Bos taurus), P63103. 220,000 tested, 0.71% active. inhibition, % at 21.7 µM;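 active = inhibition above about 70%, limit read from the data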;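 note: 0% = full 14-3-3 plus peptide FRET controls and 100% = background without 14-3-3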
Target sequence (P63103 whole entry, looked up): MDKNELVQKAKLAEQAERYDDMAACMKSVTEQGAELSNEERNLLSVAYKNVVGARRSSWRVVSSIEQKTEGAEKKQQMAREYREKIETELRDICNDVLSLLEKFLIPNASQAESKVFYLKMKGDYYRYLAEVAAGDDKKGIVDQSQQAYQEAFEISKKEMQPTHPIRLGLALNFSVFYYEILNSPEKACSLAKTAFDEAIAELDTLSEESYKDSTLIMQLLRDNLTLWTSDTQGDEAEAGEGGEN
KLK5 inh: human KLK5 protease inhibitors, primary screen, biochemical, 1536-well; inhibition, % at 5 µM; recombinant hK5, fluorogenic AMC substrate cleavage; AID 873, 2007; Kallikrein-5 (Homo sapiens), Q9Y337; 210,000 tested, 0.59% active;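 active = inhibition of 40% or more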;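 note: 0% = enzyme controls without compound and 100% = no-enzyme blanks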
Hck-Nef inh: inhibitors of Nef-activated human Hck kinase, primary screen, biochemical, Z-Lyte FRET, 384-well, Hck-YEEI. Tyrosine-protein kinase HCK (Homo sapiens), P08631. Recombinant Hck-YEEI plus Nef, Z-Lyte FRET kinase assay. inhibition, % at 20 µM. 220,000 tested, 0.68% active. AID 463187, 2010;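 active = Hck-Nef kinase inhibition above about 50%, limit read from the data; inactive = inhibition below that limit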;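 note: 0% = DMSO with Hck plus Nef and 100% = Hck alone without Nef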
Wee1 degr inh: Wee1 degradation inhibitors, primary screen, cell-based, HeLa, Wee1K328M-luciferase, luminescence; Wee1-like protein kinase (Homo sapiens), P30291; HeLa Luc-Wee1K328M stability; 100% = proteasome inhibitor MG132 effect; reporter increase, % at 5 µM; 220,000 tested, 1.2% active; AID 1321, 2008;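 active = activation above the mean of all tested compounds plus 3 SD, set per screening run, cut at about 8.8% in these data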;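 note: cells exposed to compound for 20 h before luminescence read; 0% = DMSO alone and 100% = MG132 at 30 µM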
The depositor's hits bear a star; x = no result given; + = active, no number; [ ] = another dose, or the depositor's remark. The list is partial; rates above refer to the full screens.

SMILES	Runt-SMMHC FRET	Runt-CBFb FRET	Thrombin inh	14-3-3 Bad inh	KLK5 inh	Hck-Nef inh	Wee1 degr inh
CCOC(=O)C(C)Oc1ccc2c(C)cc(=O)oc2c1C(C)=O (stereo unspecified)	-2	1	-4	18	-1	-1	1
CC1CCN(C(=O)CN(c2cccc(F)c2)S(C)(=O)=O)CC1	0	2	-7	-7	2	17	-1
CCOC(=O)c1cc2nc(Nc3ccc(OC)cc3)sc2s1	14	2	1	-4	-86	51*	1
O=C(Nc1cccnc1)c1sc(Nc2ccccc2F)nc1-c1ccccc1	0	-3	-2	-3	x	-4	-3
CSc1nc(-c2ccco2)nn1C(=O)c1ccc(Cl)cc1	-2	-2	-6	8	30	6	-3
CCOc1ccccc1-c1nc(-c2ccc(NC(=O)c3ccc(Br)o3)cc2)no1	1	0	-2	23	-21	11	8
COc1ccc(C2/C(=C(\O)c3ccc4c(c3)OCCO4)C(=O)C(=O)N2CCCN(C)C)cc1 (stereo unspecified)	2	6	5	-10	-11	1	-1
CC1=N/C(=C\c2ccc(OC(C)C)cc2)C(=O)N1c1ccc(C(=O)O)cc1	-2	0	-2	5	0	2	-1
O=C(c1ccc2c(c1)OCO2)N1CCN=C1SCc1ccccc1	4	1	-3	12	2	-3	-1
C/C(=N/NC(=O)CNC(=O)COc1ccccc1)c1ccco1	0	2	-8	0	-24	0	0
CCc1nc(NCC2CCCO2)c(C#N)c2c1COC(C)(C)C2 (stereo unspecified)	2	-4	-6	-5	-61	1	-1
Cc1c(NC(=O)CSc2nc(-c3ccco3)cc(C(F)(F)F)n2)c(=O)n(-c2ccccc2)n1C	0	-2	4	-7	3	10	-1
CC(=O)c1c(C)[nH]c(C(=O)COC(=O)CCSc2ccccc2)c1C	2	-1	-7	-1	-34	2	2
COc1ccc(C(C#N)Nc2ccccc2OC)cc1 (stereo unspecified)	0	-1	3	-3	-5	2	1
CCn1c(CNC(=O)c2ccc(OC)c(OC)c2)nnc1SCC(=O)Nc1ccc(OC)cc1	0	0	0	4	-7	6	1
CCOC(=O)N1CCN(C(=O)C2CCN(S(=O)(=O)CC)CC2)CC1	3	-2	2	3[fluorescence artefact?]	-6	1	1
O=C(CCc1ccc(S(=O)(=O)NC2CCCCC2)cc1)N(Cc1ccccc1)Cc1ccccc1	1	-3	-5	6	-10	1	2
CCOc1ccc2c(C)cc(=O)oc2c1OCC	-11	x	2	-3	28	2	-1
O=C(CNc1ccc(C(F)(F)F)cc1[N+](=O)[O-])OCC(=O)c1ccccc1	2	-1	2	3	3	2	-2
Cc1nc(-c2ccncc2)sc1C(=O)Nc1ccc(Br)cc1	0	-3	-8	-7	-4	-7	-1
CC1=C(C(=O)Nc2ccccc2)C(c2cccnc2)n2nc(-c3cccnc3)nc2N1 (stereo unspecified)	-2	2	-8	7	-2	3	1
COCCNC(=O)COc1ccccc1Cl	4	1	-4	-12	-6	1	-2
Cc1cc(=O)[nH]c(N/N=C/c2ccc(OC(=O)c3ccco3)cc2)n1	-8	-3	-3	-12	-13	3	6
O=S(=O)(CCc1nnc(-c2ccc(Br)cc2)o1)c1ccc(Cl)cc1	-5	0	4	-10	-2	-10	-2
N#CC1(c2ccc(NC(=O)c3ccccc3F)cc2)CCCC1	-1	-2	16	5[fluorescence artefact?]	32	1	0
CN1CCN(c2ccc(C(=O)NC3CCCCC3)cc2[N+](=O)[O-])CC1	0	-3	-4	11	3	22	3
C=CCN(C(=O)Nc1ccc2oc(C)nc2c1)c1ccccc1	0	2	-2	2	-7	0	1
CC(C)(C)NC(=O)c1ccc2c3c(cccc13)CC2	-2	-2	3	-10	-20	-6	0
COc1nc(OC)nc(N2CCC(C(=O)NC3CC3)CC2)n1	-4	1	3	11	-13	-11	-2
CC(=O)N1N=C2c3ccccc3CCC2C1c1cccs1 (stereo unspecified)	1	0	-9	-1	-9	2	1
Cc1ccc(C(=O)NNC(=O)/C=C\C(=O)O)cc1	4	3	-6	3	-3	1	1
Cc1nn(-c2ccccc2)c(C)c1/C=N/n1c(-c2ccncc2)n[nH]c1=S	13	-1	-7	-9	2	36	2
COCCCn1c(=N)c(C(=O)NCC2CCCO2)cc2c(=O)n3ccccc3nc21 (stereo unspecified)	65*	12	-27	-7[fluorescence artefact?]	-329	+	-3
O=C(COc1ccccc1)NC(=S)Nc1ccc2c3c(cccc13)CC2	2	2	0	1	1	-2	2
S=c1[nH]nc(COc2ccccc2)n1/N=C/C=C/c1ccco1	8	23	-5	-2	2	-19	0
Nc1cccc(C(=O)N/N=C/c2ccsc2)c1	-4	-4	-1	-18	-17	1	-1
COc1ccc2c(C)cc(=O)oc2c1C	-8	-2	1	57[fluorescence artefact?]	-13	1	2
CCC(=O)N(CCC(c1ccco1)C(C)C)Cc1ccccc1 (stereo unspecified)	-5	-2	-4	-1	0	5	1
COCCCN1C(=O)C(=O)/C(=C(/O)c2ccc3c(c2)OCCO3)C1c1ccc(C(=O)OC)cc1 (stereo unspecified)	1	1	1	-2	-11	7	-2
Cc1ccc(-c2nc3ccccc3c(=O)n2Cc2ccccc2)cc1	1	-4	-5	-5	-19	3	-1
O=C1CC(c2cccc(Br)c2)C2=C(CCCC2=O)N1 (stereo unspecified)	50	18	-4	x	27	3	0
Cc1ccc(C(=O)Oc2oc(-c3ccco3)nc2C=Nc2ccccc2)cc1	-5	-5	29	22	3	0	-1
Cc1ccc(/C=N/n2c(-c3ccncc3)n[nH]c2=S)s1	12	-2	7	-1	-6	9	-1
CCNC(=O)CC1C(=O)N(c2ccccc2)C(=O)N1Cc1ccc(OC)cc1 (stereo unspecified)	1	2	-1	-4[fluorescence artefact?]	5	8	0
CC1CC(C(F)F)n2nc(C(=O)Nc3sc4c(c3C#N)CCC(C(C)(C)C)C4)nc2N1 (stereo unspecified)	3	2	-1	0[fluorescence artefact?]	-13	3	-1
CCOC(=O)C1=C(C)Nc2nnnn2C1c1cccnc1 (stereo unspecified)	-1	4	-1	7[fluorescence artefact?]	-8	1	-3
Cc1nnc(SCC(=O)N(C)CC(=O)Nc2ccc(F)cc2)n1Cc1ccccc1	-4	1	-2	2	-1	20	-3
COc1ccccc1C(=O)n1nc(-c2ccccc2)nc1N	1	1	19	7	11	1	1
Cc1[nH]c(=O)[nH]c(=O)c1S(=O)(=O)NCCOC12CC3CC(CC(C3)C1)C2	3	-2	-1	-3[fluorescence artefact?]	-18	-12	6
CCC(=O)Nc1cc(-c2cc3ccccc3oc2=O)ccc1OC	-1	-1	-2	-10	-15	5	8
The list continues:
SMILES	Runt-SMMHC FRET	Runt-CBFb FRET	Thrombin inh	14-3-3 Bad inh	KLK5 inh	Hck-Nef inh	Wee1 degr inh
COc1ccc(C(=O)Oc2ccc[nH]c2=O)cc1	-7	2	-1	3	-4	-1	0
O=C(CSc1ccc2nnc(CCNC(=O)c3ccccc3)n2n1)Nc1ccccc1F	-1	-2	-5	-3	0	8	1
CC(C)CNC(=O)CCCc1ccccc1	-22	3	0	6	16	1	1
CCOc1ccc(NC(=O)Nc2cc(-c3ccccc3)sc2C(=O)OC)cc1	6	2	-13	2[fluorescence artefact?]	-5	2	-2
COc1ccc(Cl)cc1NC(=O)CN(C)CC(=O)NC(C)c1ccccc1 (stereo unspecified)	-6	-1	-6	0	-6	-9	0
CC1CCN(C(=O)CSc2nnc(-c3ccc(S(=O)(=O)N4CCOCC4)cc3)n2C)CC1	3	-2	-1	8	-8	-1	8
CCN(CC)CCN1CNC(=S)N(c2ccccc2OC)C1	-1	1	-12	-6	-11	7	4
O=C(NCCN1CCOCC1)c1cc2c(=O)n3ccccc3nc2n1Cc1ccccc1	48	20	-13	-11[fluorescence artefact?]	-257	52*	-1
O=C(COc1ccc(Cl)cc1)NNC(=O)c1ccccn1	4	0	1	-1	-217	3	-2
CN(C)c1ccc(/C=N/n2c(-c3cccnc3)n[nH]c2=S)cc1	15	3	-1	-4	3	23	-2

Single records, as listed above. Order of values: Runt-SMMHC FRET	Runt-CBFb FRET	Thrombin inh	14-3-3 Bad inh	KLK5 inh	Hck-Nef inh	Wee1 degr inh
`CN(C)c1ccc(/C=N/n2c(-c3cccnc3)n[nH]c2=S)cc1` is listed with 15	3	-1	-4	3	23	-2
`O=C(COc1ccc(Cl)cc1)NNC(=O)c1ccccn1` is listed with 4	0	1	-1	-217	3	-2
`O=C(CSc1ccc2nnc(CCNC(=O)c3ccccc3)n2n1)Nc1ccccc1F` is listed with -1	-2	-5	-3	0	8	1
`CC(C)CNC(=O)CCCc1ccccc1` is listed with -22	3	0	6	16	1	1

(further entries)
SMILES	Runt-SMMHC FRET	Runt-CBFb FRET	Thrombin inh	14-3-3 Bad inh	KLK5 inh	Hck-Nef inh	Wee1 degr inh
Cc1ccc(C(=O)Oc2cc(C)n(C)c(=O)c2)cc1	-2	-1	4	-5[fluorescence artefact?]	-8	-3	-2
C=CCNC(=O)c1onc(CCl)c1C(=O)OC	0	0	1	7	6	-1	-3
CC(=O)Nc1ccc2oc(-c3cc(F)c(F)cc3Cl)nc2c1	-3	-3	-1	4	-24	8	4
CCCC(=O)Nc1ccc(C(=O)n2nnc3ccccc32)cc1	2	-1	-2	2	17	0	0
C[C@H](NC(=O)c1nc[nH]c1C(=O)N1CCN(c2ccccc2)CC1)C(=O)OC(C)(C)C	-4	0	0	1	2	18	x
C/C(=N/NC(=O)CNc1ccc(C)cc1)c1ccc(Cl)cc1	0	0	-5	6	2	-1	-4
CC(=O)c1cc(C#N)c(N2CCCC2)nc1C	-2	-1	1	-7	-15	3	3
Cc1cc(C(=O)N/N=C/c2cccc(OC(=O)c3ccco3)c2)n[nH]1	1	x	11	-6	-25	7	-3
COc1ccccc1/C=C/C=N/n1c(-c2ccncc2)n[nH]c1=S	12	5	1	-18[fluorescence artefact?]	-6	9	-3
Cc1cc(C)c2nc(N3CCCC3)c(C#N)cc2c1	65*	23	-5	-14	2	5	5
C=CCn1c(CCNC(=O)c2cccs2)nnc1SCC(=O)Nc1cccc(F)c1	-2	1	-5	-1	-4	1	0
S=c1[nH]nc(COc2ccccc2)n1/N=C/c1ccncc1	10	12	3	-13	3	2	-2
O=C(CCSc1nc(-c2ccco2)cc(C(F)(F)F)n1)NCCN1CCOCC1	4	0	-7	-7	-3	13	1
CN(C)C(=O)c1ccc2c3c(cccc13)CC2	0	-1	-2	-7	1	28	-1
O=C(O)c1nn2c(C(F)(F)F)cc(-c3cccs3)nc2c1Cl	-17	-6	-10	-11[fluorescence artefact?]	-19	1	-2
O=C(Nc1nc(-c2ccccn2)cs1)c1ncc(Cl)c(Cl)c1Cl	0	-6	27	-49[fluorescence artefact?]	-12	3	-2
CCOC(=O)N1CCN(C(=O)C2CCN(CC3CCCCC3)CC2)CC1	-2	-3	1	3	-14	5	2
Cc1ccc(-c2cnc(NC(=O)CCC(=O)N3CCCCC3)n2C)cc1	0	1	4	-3	-11	0	7
N#Cc1c(N(CCO)CCO)nc(N)c2c(N)nc3c(c12)CC(=O)N3Cc1cccs1	-4	4	-1	-3	-1	-29	5
